From PubChem BioAssay
Rango-impB inh – prevents formation of the Rango-importin beta complex; Q14974; Rango CFP/YFP FRET sensor + importin beta, 45 min; Potency, µM (titrated, usually from 92.2 µM), without a hit: top-dose inhibition of complex formation; 0.031% of 340,000 active; AID 540263; active = rising FRET ratio curve, often small or poorly fitted; inconclusive = mostly compound fluorescence or quenching in the first reads; inactive = flat curves in all reads;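 further: potency means the concentration at half of the fitted maximal effect; 0% = DMSO wells and 100% = buffer wells lacking importin beta; nearly all actives have a fitted effect of over 15% in size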
Target sequence (Q14974 whole entry, looked up): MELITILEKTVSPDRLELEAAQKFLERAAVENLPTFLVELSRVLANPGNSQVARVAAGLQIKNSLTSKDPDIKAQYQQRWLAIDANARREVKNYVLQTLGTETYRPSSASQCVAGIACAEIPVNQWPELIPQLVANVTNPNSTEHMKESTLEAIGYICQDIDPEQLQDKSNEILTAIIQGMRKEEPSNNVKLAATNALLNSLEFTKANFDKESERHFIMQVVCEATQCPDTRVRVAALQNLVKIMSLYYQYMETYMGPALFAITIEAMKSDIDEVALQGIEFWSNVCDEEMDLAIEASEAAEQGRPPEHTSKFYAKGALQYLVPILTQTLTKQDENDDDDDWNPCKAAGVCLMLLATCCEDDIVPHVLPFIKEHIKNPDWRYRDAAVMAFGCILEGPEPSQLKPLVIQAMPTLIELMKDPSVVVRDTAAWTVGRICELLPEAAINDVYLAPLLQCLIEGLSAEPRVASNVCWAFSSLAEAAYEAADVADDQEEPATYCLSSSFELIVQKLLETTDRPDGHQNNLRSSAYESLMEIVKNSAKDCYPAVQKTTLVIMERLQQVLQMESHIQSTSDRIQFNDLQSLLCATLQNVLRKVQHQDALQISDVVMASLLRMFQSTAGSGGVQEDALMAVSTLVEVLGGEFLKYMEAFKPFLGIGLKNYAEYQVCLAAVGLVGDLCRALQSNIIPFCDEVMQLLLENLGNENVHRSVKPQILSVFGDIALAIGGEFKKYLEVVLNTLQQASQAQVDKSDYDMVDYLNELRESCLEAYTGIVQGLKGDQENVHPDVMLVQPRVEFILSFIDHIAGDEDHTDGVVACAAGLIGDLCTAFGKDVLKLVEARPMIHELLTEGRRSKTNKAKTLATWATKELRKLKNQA
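FRET biosensor Rango (snurportin 1 IBB between N-terminal EYFP and C-terminal Cerulean), 50 nM in PBS/1 mM DTT/0.02% Tween-20/0.1% BSA, preincubated 5 min RT with compound; 0.125 microM importin beta added, 45 min RT, CFP/YFP FRET ratio read.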
GLA inh pH 4.5 – blocks human alpha-galactosidase A at pH 4.5; 230,000 tested, under 10 active; purified enzyme, 4-MU-alpha-Gal fluorescence, pH 4.5; activity change, negative = inhibition, % at 105 µM; P06280; inconclusive = small, poorly fitted or top-dose-only inhibition, or a rising curve; inactive = flat fitted curve, though single readings scatter; no compound was filed as active;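 further: 0% = full activity with enzyme and -100% = basal without enzyme; dose as in the result columns while the protocol names 77 µM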
miR-21 FLuc – miR-21 reporter, rising signal; HeLa miR-21 FLuc reporter, luciferase, 48 h; Potency, µM (doses to about 38.3 µM), inactives show at the top dose reporter change, positive = more light; 340,000 tested, under 10 active; AID 2288; active = well fitted rising curve with a large enough effect; inconclusive = small, poorly fitted or top-dose-only effect; inactive = no such curve, though single readings can be large or run the other way;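 further: % of control where 0% means no effect; miR-21 action dims this reporter so a rising signal means less miR-21 action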
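HeLa cells stably expressing CMV-driven firefly luciferase with a downstream miR-21 binding sequence, endogenously expressing miR-21, were treated with titrations (up to about 40uM final) for 48 hours at 37 degree Celsius. Luciferase luminescence was read after lysis.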
Rango release inh – prevents RanGTP from dissociating the Rango-importin beta complex. O95149+P62826. Biochemical FRET Rango-importin beta, RanGTP-induced dissociation. Potency, µM (top dose mostly 46.1 µM), for the others: top-dose activity change, negative = inhibition. 0.071% of 340,000 active; active means falling FRET ratio curve, often poorly fitted, with flat reads before Ran was added; inconclusive means other falling curves, or compound fluorescence or quenching; inactive means flat or rising ratio curve;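 further: potency means the concentration at half of the fitted maximal effect; % of control where 0% means no effect; nearly all actives have a fitted effect of over 45% in size; -100% = wells without RanGTP and RCC1; the record marks most hits as doubtful in a second field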
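Recombinant Rango FRET biosensor (EYFP–snurportin 1 IBB–cerulean CFP10) at 0.1 uM premixed with 0.25 uM importin beta in PBS, 1 mM DTT, 0.02% Tween-20, 0.1% BSA. Compound added 5 min; RanGTP-RCC1 (0.6 uM Ran, 2 mM GTP, 0.2 uM RCC1) then triggers release, read at 45 min.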
An asterisk follows results filed as active; ? = inconclusive; nt = no result given; & = joins results of further samples. Some of the compounds tested, so the mix of outcomes need not match the whole.

SMILES	Rango-impB inh	GLA inh pH 4.5	miR-21 FLuc	Rango release inh
S=C(NCc1ccccc1)N1CCn2cccc2C1c1ccncc1 (configuration not stated)	0.1%	6.6	-1.3%	-15.9%
CCOc1cccc(-c2c(C(=O)N/N=C/c3ccncc3)nnn2-c2nonc2N)c1	2.9%	nt	1.0%	7.1%
O=S(=O)(Nc1ccccn1)c1cccc(S(=O)(=O)c2ccc(Cl)cc2)c1	-1.3%	-10.9	-7.1%	10.9%
CCn1c2ccccc2c2nnc(SCC(=O)NCCOC)nc21	3.1%	6.3	-15.2%	-3.7%
CCN(C(=N)N=C(N)N)c1ccccc1	-0.7%	-1.1	-2.6%	-4.2%
COc1ccccc1C(=O)NC(CCSC)C(=O)NCC(c1ccco1)N(C)C (configuration not stated)	-2.5%	0.2	-3.1%	-3.5%
CC1CCC(NC(=O)c2ccc(NS(=O)(=O)c3ccc4[nH]c(=O)[nH]c4c3)cc2)CC1 (configuration not stated)	?	nt	nt	-13.8%
CC(=O)Oc1cccc(N2C(=O)C3C4C=CC(C4=C(C)C)C3C2=O)c1 (configuration not stated)	-2.7%	-2.6	-0.6%	-10.0%
CCN(CC)S(=O)(=O)c1ccc(Oc2cccc(C(C)=O)c2)nc1	-0.1%	-5.5	-0.7%	1.1%
Cc1ccc(C2CC(c3cccs3)=NN2C(=O)c2ccc(Br)o2)cc1 (configuration not stated)	-2.2%	-10.8	-0.9%	-12.3%
NC(=O)c1ccc(NC(=O)COC(=O)c2ccc(Br)c(S(=O)(=O)N3CCOCC3)c2)cc1	-0.1%	nt	nt	-15.4%
C=CCn1c(CSCc2ccc(C)cc2)nnc1SCC(=O)NCc1ccccc1	-2.2%	4.0	-1.2%	-14.7%
COc1ccc(C(CNC(=O)c2ccc(OC)c(S(=O)(=O)N3CCCC3)c2)N2CCCC2)cc1 (configuration not stated)	5.4%	nt	nt	?
CCOC(=O)C1C(=O)C=C(c2ccc(C)cc2)CC1c1ccco1 (configuration not stated)	3.3%	-1.3	-15.2%	2.2%
COc1ccc(NC(=O)c2ccccc2SC)c(OC)c1	-2.3%	-2.2	-19.2%	-1.7%
O=C(Nc1nnc(C2CC2)s1)c1cc2c(s1)CCCCCC2	nt	7.8	-5.7%	nt
O=c1cnc2ccccc2n1CC1CCCCC1	-4.7%	0.5	-30.0%	-5.9%
CCOc1ccc(NC(=O)c2cc([N+](=O)[O-])ccc2N2CCOCC2)cc1	-2.9%	nt	nt	23.2%
Cc1ccc(C(C(=O)NC2CCCC2)N(Cc2ccco2)C(=O)CCC(=O)Nc2cc(C)on2)cc1 (configuration not stated)	-0.6%	-10.4	2.3%	1.9%
COc1ccc(C2CC(c3ccc(Cl)cc3Cl)Nc3nc(N)nn32)cc1OC (configuration not stated)	4.2%	-4.8	-19.7%	-3.7%
S=c1c2[nH]cnc2ncn1CCSc1ncnc2nc[nH]c12	1.1%	nt	nt	-8.7%
CC(O)(CS(=O)(=O)Cc1ccccc1Cl)C(=O)Nc1cccc(C(F)(F)F)c1 (configuration not stated)	7.1%	1.1	-7.1%	-8.3%
CCCCCCCCCOC(=O)C(CC(=O)O)N1CCOCC1 (configuration not stated)	3.4%	0.8	-2.7%	1.4%
CC(=O)c1c(C)[nH]c(C(=O)OCC(=O)Nc2ccc([N+](=O)[O-])cc2Cl)c1C	3.3%	7.8	-2.1%	-4.0%
CCc1noc(C)c1C(=O)NNC(=O)c1ccccc1F	2.5%	nt	nt	-11.0%
CCOC(=O)c1sc(C)c2c1NC(C)(c1ccccc1)NC2=O (configuration not stated)	-1.3%	0.0	-7.6%	-10.9%
Cc1cc(=O)n2[nH]c(-c3sccc3-n3c(C)ccc3C)cc2n1	-3.6%	-8.9	-2.2%	2.4%
COc1ccccc1N1CCN(C(=O)c2ccccc2SCC(=O)NCc2ccco2)CC1	3.6%	nt	nt	-1.3%
Cc1ccc2c(n1)sc1c(N)ncnc12	-2.7%	2.6	-44.8%	-15.6%
CCc1ccc(OCC(=O)NC(C)C)cc1	1.8%	3.2	-15.2%	9.6%
Cc1ccc(NC(=O)CSc2nnc(CN3CCOCC3)n2-c2ccccc2)cc1	-1.3%	-0.2	-0.7%	4.0%
Cc1ccc(C2CC2C(=O)NNC(=S)Nc2cccc(Cl)c2)cc1 (configuration not stated)	-1.1%	1.4	2.6%	6.9%
O=C(CN1C(=O)COc2ccccc21)N1CCOCC1	?	nt	0.0%	-7.9%
Cc1cc(C)n(CC(C)NCc2cn[nH]c2-c2cccc3ccccc23)n1 (configuration not stated)	-1.6%	-11.3	0.6%	-9.8%
O=C(C1CCCN(S(=O)(=O)c2cccc3cccnc23)C1)N1CCc2ccccc21 (configuration not stated)	-3.0%	-9.2	12.0%	17.6%
CC(=O)c1c(C)[nH]c(C(=O)CSc2nc3ccccc3c(=O)n2CCCN2CCOCC2)c1C	1.5%	-3.5	-6.6%	12.0%

Reprinted at random: 6 compounds from above.
SMILES	Rango-impB inh	GLA inh pH 4.5	miR-21 FLuc	Rango release inh
CCOC(=O)c1sc(C)c2c1NC(C)(c1ccccc1)NC2=O (configuration not stated)	-1.3%	0.0	-7.6%	-10.9%
Cc1cc(C)n(CC(C)NCc2cn[nH]c2-c2cccc3ccccc23)n1 (configuration not stated)	-1.6%	-11.3	0.6%	-9.8%
CCc1ccc(OCC(=O)NC(C)C)cc1	1.8%	3.2	-15.2%	9.6%
COc1ccccc1N1CCN(C(=O)c2ccccc2SCC(=O)NCc2ccco2)CC1	3.6%	nt	nt	-1.3%
Cc1ccc(NC(=O)CSc2nnc(CN3CCOCC3)n2-c2ccccc2)cc1	-1.3%	-0.2	-0.7%	4.0%
Cc1ccc2c(n1)sc1c(N)ncnc12	-2.7%	2.6	-44.8%	-15.6%

Next compounds.
SMILES	Rango-impB inh	GLA inh pH 4.5	miR-21 FLuc	Rango release inh
CSc1nc(C)cc(Oc2ccc(OCC(N)=O)nn2)n1	-7.4%	-1.0	3.5%	-1.3%
O=C(Nc1nc2ccc([N+](=O)[O-])cc2s1)c1c(F)cccc1F	?	-7.9	0.7%	-27.4%
CCOC(=O)Cc1cc(=O)n2[nH]cc(-c3cccc(Br)c3)c2n1	0.2%	4.8	0.8%	13.4%
COc1c(C)cc(C(=O)C2CCCN(C(=O)c3ccoc3)C2)cc1C (configuration not stated)	-0.9%	4.6	-18.8%	5.2%
O=C(OCN1C(=O)C(=O)c2ccccc21)c1ccc(Cl)cc1	2.8%	nt	1.6%	-0.8%
COc1ccc(S(=O)(=O)N2CCC(C(=O)NCC(=O)Nc3c(C)cccc3C)CC2)cc1OC	-1.7%	nt	nt	0.4%
CC1CN(c2ccc(NC(=O)c3ccco3)cc2C(=O)O)CC(C)O1 (configuration not stated)	-2.6%	-11.7	-4.0%	0.0%
O=C(Nc1ccc(F)cc1)NC1CCCc2ccccc21 (configuration not stated)	2.9%	nt	-0.2%	9.5%
Cc1ccccc1N(C(=O)c1snc(C(N)=O)c1N)C(C(=O)NCC1CCCO1)c1ccc(F)cc1 (configuration not stated)	-16.9%	nt	10.5%	-4.0%
Cc1ccc(NC(=O)COC(=O)c2cc(Cl)cc(Cl)c2)c(Br)c1	0.5%	3.0	-2.6%	-3.6%
COc1ccccc1CNC(=O)CCS(=O)(=O)Cc1ccc(C)cc1	-0.6%	nt	-3.7%	-9.6%
Cc1ccc(CNC(=O)C2CCC(CNc3c(N4CCOCC4)c(=O)c3=O)CC2)cc1 (configuration not stated)	-1.1%	-0.3	-2.0%	8.5%
O=C(Nc1ccc(Cl)cc1)c1ccc(S(=O)(=O)N2CCOCC2)cc1	-3.8%	nt	3.0%	3.6%
CCOc1ccc(CCNC(=O)Cn2cccc2C(=O)c2ccccc2C)cc1OCC	-0.6%	-17.3	-8.8%	-13.6%
CCc1cc(=O)oc2c(C)c(OCC(=O)NCCCn3ccnc3)ccc12	0.1%	nt	2.8%	?
O=C(NCc1ccccc1)c1ncn(Cc2ccccc2)c1C(=O)NCc1ccccc1	2.8%	nt	nt	-16.6%
Cc1ccc2c(c1)CCCN2C(=O)c1ccoc1C	-2.0%	0.6	4.7%	-7.2%
CC1(C)C2CCC1(CS(=O)(=O)Nc1ccc(S(=O)(=O)N3CCCC3)cc1)C(=O)C2 (configuration not stated)	-2.8%	-0.3	-8.3%	-11.8%
Brc1cccc(C2CC(c3ccccc3)n3nnnc3N2)c1 (configuration not stated)	1.1%	1.2	-7.9%	-10.9%
CCN(c1ccccc1)S(=O)(=O)c1cc(C(=O)NCc2ccco2)ccc1C	-7.5%	nt	nt	-12.7%
Cc1ccccc1NC(=O)CSc1ccc(-c2ccccn2)nn1	-1.0%	nt	-1.8%&0.0%	-2.2%
COc1ccc(CN(C(=O)c2oc3cc(C)ccc3c2C)C2CCS(=O)(=O)C2)cc1OC (configuration not stated)	-2.0%	nt	-5.0%	22.5%
Cc1cc(OCCCC(=O)NNC(=O)c2ccncc2)ccc1Cl	-1.4%	nt	4.3%	-6.8%
O=C(NCCSCc1ccccc1)c1ccc(F)cc1	-4.0%	-2.1	-12.3%	-9.8%
Cn1c(O)c(N=NC(=O)CNC(=O)c2ccco2)c2ccccc21	6.3%	3.1	0.3%	-3.4%
CCOc1ccccc1NC(=O)c1ccc2c(c1)C(=O)N(CC(C)C)C2=O	0.4%	nt	1.0%	12.8%
CCOC(=O)N1CCN(C2=C(NS(=O)(=O)c3ccc(C)cc3)C(=O)c3ccccc3C2=O)CC1	0.7%	nt	20.2%	-2.0%
O=C(CSCc1ccc(Cl)cc1)Nc1ccc(Br)cc1C(=O)O	-1.2%	nt	3.2%	16.9%
CC(CNS(=O)(=O)c1ccccc1)Sc1nncn1C (configuration not stated)	1.1%	7.1	-0.3%	-9.4%
Nc1nc(Nc2ccccc2F)nc(NCc2ccccc2)c1[N+](=O)[O-]	3.1%	-0.8	-11.9%	12.1%
CCOc1ccc(S(=O)(=O)N2CCN(C(=O)c3oc4ccc(OC)cc4c3C)CC2)cc1	-6.4%	nt	nt	?
COc1cccc(CNC(=O)c2cccc(S(=O)(=O)N3CCN(Cc4ccccc4)CC3)c2)c1	-2.1%	nt	nt	-4.9%
CCCCC(=O)Nc1ccc(NC(=O)c2cccnc2)cn1	-4.1%	-3.3	-7.1%	-20.6%
CCC(=O)Nc1cccc(C(=O)OC)c1	-0.7%	4.5	-1.2%	3.2%
O=C(COC(=O)Cc1c(F)cccc1Cl)NC(=O)Nc1ccccc1F	-1.3%	nt	nt	1.0%
Cc1ccc(-c2csc3ncnc(NCCC(=O)O)c23)cc1C	7.0%	nt	-14.8%	7.2%
O=C(C1CCN(c2nnnn2-c2ccccc2)CC1)N1CCN(c2ccccc2)CC1	0.4%	-4.3	-2.1%	-7.4%
O=C(N/N=C\c1ccc(Br)o1)C1COc2ccccc2O1 (configuration not stated)	-1.4%	-9.5	11.6%	0.2%
CCN(CCn1cccn1)C(=O)C1CCC(=O)N(CC2CCCCC2)C1 (configuration not stated)	2.0%	nt	-2.5%	2.0%
NC(=O)c1sc2nc(N3CCCCC3)c3c(c2c1N)CCCC3	3.5%	-0.1	1.2%	33.7%
COc1cc(CCC(=O)OCC(=O)Nc2c(C)cccc2C(C)C)cc(OC)c1OC	-2.1%	13.5	1.3%	-4.5%
CN(C)S(=O)(=O)c1cc(S(=O)(=O)N(C)C)c(Cl)cc1N	-0.6%	9.4	-1.6%	-9.4%
Cc1cc(C)cc(NC(=O)C2CCN(c3nccs3)CC2)c1	-1.7%	7.0	6.3%	-0.6%
Cc1ccc(C)c(N2CCN(CC(=O)Nc3ccc4[nH]c(=O)[nH]c4c3)CC2)c1	-3.1%	-2.2	-9.5%	-2.4%
COc1ccc(CNC(=O)c2cc3cccc(OC)c3oc2=N)cc1	-1.2%	nt	-1.3%	-6.1%
CCOc1cc(CNc2ccccc2SC)ccc1O	nt	-4.5	2.1%	nt
CC(=O)Nc1sc(C)c(C)c1C(=O)Nc1ccc(C)cc1	0.4%	5.4	-10.4%	-12.5%
